Assay outcomes from PubChem BioAssay.
Beta2AR agonist: beta2AR agonists driving receptor internalization, primary screen, cell-based, FAP fluorogen, flow cytometry; Beta-2 adrenergic receptor (Homo sapiens), P07550; Am2.2-beta2AR cells; reference of the scale not given here; response, % (concentration not given with the values); 340,000 compounds, 0.43% hits;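 active = response above a set limit, near 3 SD of response in nonfluorescent compounds, cut at about 42% in these data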;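 note: stock transfer was 100 nL into about 11 µL; a reference agonist was the positive control; negative values mostly stem from fluorescent compounds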
Target sequence (P07550 whole entry, looked up): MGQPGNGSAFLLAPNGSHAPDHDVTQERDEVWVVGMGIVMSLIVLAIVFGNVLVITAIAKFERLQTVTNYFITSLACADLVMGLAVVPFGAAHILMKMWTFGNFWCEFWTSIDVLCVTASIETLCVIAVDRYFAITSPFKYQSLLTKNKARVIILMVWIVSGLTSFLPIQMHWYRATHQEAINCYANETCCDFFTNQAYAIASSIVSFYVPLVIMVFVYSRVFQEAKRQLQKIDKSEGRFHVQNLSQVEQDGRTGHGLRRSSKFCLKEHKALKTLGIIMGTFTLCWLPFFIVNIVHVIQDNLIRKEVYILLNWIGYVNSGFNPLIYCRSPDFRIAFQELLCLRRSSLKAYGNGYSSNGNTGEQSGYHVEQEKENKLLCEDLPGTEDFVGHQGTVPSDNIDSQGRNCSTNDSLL
ALR H2O2 inh: inhibitors of human ALR sulfhydryl oxidase, primary screen, biochemical, H2O2 detection, HRP-luminol luminescence, single point | purified ALR, DTT oxidation | FAD-linked sulfhydryl oxidase ALR (Homo sapiens), P55789 | inhibition, % (no concentration beside the values) | AID 485317, 2010 | 290,000 compounds, 3.8% hits;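 active = mean and each replicate at 75% or more; inconclusive = only one of the two met; inactive = neither met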;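 note: stock transfer was 7.5 nL into about 7.5 µL; 0% = neutral wells and 100% = wells with inactivated enzyme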
LANA-H2A inh: blockers of LANA interaction with H2A/H2B – biochemical, FP readout, HTS, primary screen | inhibition, % (test concentration not listed) | Protein LANA1 (Human herpesvirus 8 type P (isolate GK18)), Q9QR71 | cell-free LANA-H2A/H2B peptide, fluorescence polarization | 320,000 compounds, 0.6% hits | AID 2629, 2010; in the data active = inhibition mostly above about 10%, no sharp cut-off; inactive = mostly below about 6.7%;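 note: stock transfer was 7.5 nL into about 10 µL; 0% = median of vehicle wells and 100% = median of positive control wells; one replicate is shown; the record names a cut of 25% in any replicate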
HNF4A DNA FP: change in binding of human HNF4A to DNA, primary screen, biochemical, fluorescence polarization, FITC-DNA. Hepatocyte nuclear factor 4-alpha (Homo sapiens), P41235. 1 h. activity change, % at 10 µM. 360,000 compounds, 0.3% hits; in the data active = activity change above about 30%, passing the limit was not always enough;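 note: controls were the assay level and a saturating level of protein; the project sought stronger binding though the title names inhibitors; some compounds called inactive have numbers as strong as hits; positive values seem to mean higher polarization but the record does not say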
FGF22 binding: binders of human FGF22 protein, primary screen, FGF22 synaptogenesis inhibitor project, biophysical, thermal shift, single point; 340,000 compounds, 1.5% hits; calls only at 9.99 µM; recombinant FGF22 thermal shift, SYPRO orange fluorescence; percent of sucrose octasulfate shift, DMSO zero; Fibroblast growth factor 22 (Homo sapiens), Q9HCT0;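 active = melting point raised past a set limit in the mean and every replicate; inconclusive = no clear call; three in four hits are not shown here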
Target sequence (Q9HCT0 whole entry, looked up): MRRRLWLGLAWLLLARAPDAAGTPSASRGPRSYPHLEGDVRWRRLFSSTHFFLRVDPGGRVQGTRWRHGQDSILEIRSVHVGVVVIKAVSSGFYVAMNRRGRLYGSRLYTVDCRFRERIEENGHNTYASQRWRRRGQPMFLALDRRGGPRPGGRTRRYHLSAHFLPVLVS
UCH37 DUB inh: inhibitors of human UCH37 deubiquitinase, primary screen, biochemical, Ub-AMC cleavage, fluorescence; Ubiquitin carboxyl-terminal hydrolase isozyme L5 (Homo sapiens), Q9Y5K5; purified proteasome/UCH37; inhibition, % (no concentration beside the values); 330,000 compounds, 0.33% hits; AID 588478, 2011;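 active = mean of two replicates above 20%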;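 note: 0% = compound-free wells with enzyme and 100% = wells lacking proteasome; stock transfer was 100 nL into about 20 µL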
Target sequence (Q9Y5K5 whole entry, looked up): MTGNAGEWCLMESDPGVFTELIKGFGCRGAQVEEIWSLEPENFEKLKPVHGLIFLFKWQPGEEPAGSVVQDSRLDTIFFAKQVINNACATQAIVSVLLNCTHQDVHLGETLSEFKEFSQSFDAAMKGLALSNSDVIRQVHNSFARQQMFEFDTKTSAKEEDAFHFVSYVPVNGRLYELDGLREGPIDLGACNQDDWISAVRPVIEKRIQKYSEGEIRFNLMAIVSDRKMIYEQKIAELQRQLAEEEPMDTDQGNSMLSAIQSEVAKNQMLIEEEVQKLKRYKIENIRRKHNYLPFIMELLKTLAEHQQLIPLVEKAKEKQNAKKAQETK
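Material: human UCH37 enzyme supplied as purified proteasome complex. Measure: % inhibition of Ub-AMC cleavage fluorescence. Medium: pH 7.4 Tris-HCl (50 mM) with ovalbumin, ATP-MgCl2, DTT. Times: 30 min preincubation with enzyme, 25 min cleavage at room temperature. Detection: AMC fluorescence intensity at 355/460 nm.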
Ecoli growth: E. coli growth inhibition, primary screen, OD600. Escherichia coli growth, 23 h; hits give low values. OD600 absorbance (test concentration not listed). 330,000 compounds, 0.21% hits. AID 1053175, 2014;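 active = OD600 absorbance below the run mean of sample wells minus 3.6 SD, in any replicate, cut at about 0.56 in these data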;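 note: stock transfer was 300 nL into about 60 µL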
Numbers without * were called inactive; i = inactive; u = inconclusive; x = no result given. Some of the compounds tested (hit frequency here may not be typical).

SMILES	Beta2AR agonist	ALR H2O2 inh	LANA-H2A inh	HNF4A DNA FP	FGF22 binding	UCH37 DUB inh	Ecoli growth
CCOc1ncccc1C(=O)N1CCN(S(=O)(=O)c2ccc3c(c2)OCCO3)CC1	2.5	-5.8	5.3	2.2	i	1.7	0.693
CC(=O)Nc1ccccc1NC(=O)c1cc(C)cc(C)c1	-2.0	-2.0	0.5	3.3	i	1.4	0.589
O=C(c1cccc(-c2ccccc2F)c1)N1CC[C@@H](N2CCC(O)CC2)[C@H](O)C1	-0.9	-8.7	-16.1	6.3	i	3.3	0.712
Cc1ccc(OCCNS(=O)(=O)c2cccs2)cc1	6.9	x	0.2	12.1	x	4.9	0.721
COc1cc(NC(=O)COC(=O)Cc2ccc(-c3ccccc3)cc2)cc(OC)c1	6.5	-5.2	-4.6	-3.5	i	7.1	0.737
CCc1cccc(NC(=O)c2cccc(S(=O)(=O)N3CCN(C)CC3)c2)c1	11.6	6.9	0.6	0.4	i	2.4	0.649
Cc1cc(Cc2ccc([N+](=O)[O-])cc2)c(C)cn1	11.5	-0.5	-5.1	2.0	i	2.2	0.592
COC(=O)c1ccc(C(=O)OC)c(NC(=S)N2CCN(c3cc(Cl)ccc3C)CC2)c1	11.8	1.0	-4.1	-0.8	x	-2.5	0.722
Cc1oc(-c2ccccc2Cl)nc1CS(=O)CC(=O)NCc1ccc2c(c1)OCO2 (stereo unspecified)	0.3	82.0*	8.5	0.5	i	0.5	0.642
OCc1nc2ccccc2n1CCOc1ccccc1	2.2	-0.9	2.9	2.3	i	0.8	0.6
O=C(CC12CC3CC(CC(Br)(C3)C1)C2)NC1=NCCS1	9.7	x	1.5	-2.1	i	-1.0	0.709
COc1ccc(-n2c(Cc3cccn3C)nnc2SCC(=O)Nc2nccs2)cc1	-5.5	x	3.8	4.1	i	-0.1	0.715
CN1CCN(C(=O)CCN2C(=O)c3ccccc3C2=O)CC1	-1.7	-19.1	-0.8	3.0	i	-0.9	0.663
Cc1c(Br)c([N+](=O)[O-])nn1C(C)C(=O)N1CCCc2ccccc21 (stereo unspecified)	8.8	0.1	2.5	-2.7	x	1.3	0.653
Cc1cc(-c2ccccc2)nc(N/N=C/c2ccc(N(C)C)cc2)n1	11.6	70.5	-3.6	7.4	i	x	x
Cc1ccc(C(=O)NC2CCCCNC2=O)cc1C (stereo unspecified)	-2.4	-7.3	1.9	-1.9	i	5.0	0.69
O=C(CSCc1ccc(Cl)cc1Cl)Nc1nccs1	53.9*	-3.8	2.3	-0.9	i	0.5	0.7
CSc1ccc(CSCC(=O)N2CCN(S(=O)(=O)c3ccc(C)cc3C)CC2)cc1	-3.2	-12.5	-3.4	-1.6	i	4.0	0.682
CCN(CC)c1ccc(N=Cc2c(C)[nH]c3ccccc23)cc1	-1.1	u	-0.9	1.8	x	5.8	0.719
O=C(CS(=O)(=O)c1ccccc1)NCc1ccc(Cl)cc1	-3.6	-6.1	-1.6	-0.9	i	4.1	0.704
COc1cc(C2Nc3ccc4ncccc4c3C3=C2C(=O)CC(C)(C)C3)cc(OC)c1O (stereo unspecified)	-14.2	5.5	-4.4	-1.2	x	2.1	0.743
CCOC(=O)/C(C#N)=C/c1cc2cc(C)c(C)cc2nc1Cl	6.0	66.3	3.7	2.5	i	-7.7	0.679
O=C(CN1CCN(c2ccccn2)CC1)NCc1cccs1	-3.7	-12.4	-0.2	-0.7	x	0.2	0.668
CCn1c(SCC(=O)N2CCCCCC2)nc2c([nH]c3ccccc32)c1=O	-2.8	-13.2	-2.8	2.0	i	-2.8	0.733
c1ccc(-c2nc3cc4ccccc4cc3[nH]2)nc1	2.7	-6.7	0.2	-6.5	x	-52.9	0.634

3 compounds from above, sorted by their value in UCH37 DUB inh, ascending:
| mol | UCH37 DUB inh |
| --- | --- |
| CCn1c(SCC(=O)N2CCCCCC2)nc2c([nH]c3ccccc32)c1=O | -2.8 |
| O=C(CC12CC3CC(CC(Br)(C3)C1)C2)NC1=NCCS1 | -1.0 |
| CCc1cccc(NC(=O)c2cccc(S(=O)(=O)N3CCN(C)CC3)c2)c1 | 2.4 |

(more compounds)
SMILES	Beta2AR agonist	ALR H2O2 inh	LANA-H2A inh	HNF4A DNA FP	FGF22 binding	UCH37 DUB inh	Ecoli growth
CCc1ccc(NCCC(=O)c2ccc(Cl)cc2)cc1	-13.8	-3.5	-4.1	0.5	x	2.1	0.694
CC(C)N1C(=O)C2C(c3ccccc3O)NC(C)(C(=O)O)C2C1=O (stereo unspecified)	7.7	89.1*	2.6	3.5	i	4.9	0.739
Cc1c(C(=O)N2CCOCC2)c(S(=O)(=O)Nc2ccc(Br)cc2F)c(C)n1C	-8.0	-1.4	-5.6	5.5	i	4.1	0.693
O=C(OCCN(C1=NS(=O)(=O)c2ccccc21)c1ccccc1Cl)c1ccc(Cl)cc1	-2.5	-0.7	0.8	3.4	x	1.2	0.779
O=C(Nc1cnn(Cc2ccc(F)cc2)c1)C(c1ccccc1)c1ccccc1	1.1	x	x	-5.8	x	2.5	0.664
Cc1cc(C)cc(C(=O)Nc2c3c(nn2C(C)(C)C)CS(=O)(=O)C3)c1	-0.2	-0.3	-1.6	-0.5	i	1.4	0.649
O=C1CSC(c2ccccn2)N1c1ccc2ccccc2c1 (stereo unspecified)	0.3	67.9	-1.0	-1.6	x	2.9	0.721
CC(C)(C)c1ccc(N=C2SCC(=O)N2Cc2cccs2)cc1	2.0	x	-1.2	2.5	i	1.9	0.642
CN(CC(=O)Nc1ccccc1C(F)(F)F)CC(=O)N1CCCCCC1	-0.3	-5.8	2.5	0.8	i	-2.0	0.684
COc1cccc2c(Cl)c(CCCl)c(C)nc12	6.9	x	0.9	1.7	i	-0.9	0.692
COc1ccc2c(=O)c(-c3ccccc3)c(C)oc2c1	19.5	1.9	3.7	0.3	x	0.8	0.627
CC(=O)c1ccc2c(c1)C1C=CCC1C(c1ccncc1)N2 (stereo unspecified)	-7.8	-15.7	-6.5	1.3	x	3.7	0.671
Cc1ccc(S(=O)(=O)N(C)C)cc1NC(=O)COC(=O)CN1C(=O)c2ccccc2C1=O	1.8	-6.5	x	0.4	i	0.3	0.681
c1coc(CNCc2cccs2)c1	2.9	-4.0	-6.1	2.7	x	1.6	0.712
CC(=O)C1=C(O)C(=O)N(CCc2c[nH]c3ccccc23)C1c1ccccc1 (stereo unspecified)	7.0	41.6	1.0	0.5	i	5.6	0.742
COc1ccc(CNc2ncc(-c3ccc(F)cc3)n2C)c2ccccc12	-4.3	12.7	-1.8	0.0	i	5.6	0.63
COc1ccc(OC)c(N=C2SCCCN2C(=O)c2ccc(N3C(=O)CCC3=O)cc2)c1	x	-3.6	-3.5	x	i	x	x
COc1ccc(OC)c(NC(=O)Cn2c(=O)n(CC3CCCO3)c(=O)c3cc(OC)c(OC)cc32)c1 (stereo unspecified)	3.4	x	4.4	1.9	i	8.4	0.708
CC(C)(C)N(Cc1ccccc1)C(=O)COC(=O)c1ccc([N+](=O)[O-])o1	-2.5	x	-1.8	0.9	i	3.9	0.669
Cc1ccc(S(=O)(=O)N2CCN(C(=O)c3ccc(-n4cncn4)c([N+](=O)[O-])c3)CC2)cc1C	5.0	-8.3	-0.6	3.5	i	1.8	0.716
COC1=C/C(=C/c2c(N)n3nc(CC(=O)N4CCCCC4)sc3nc2=O)C=CC1=O	1.2	99.6*	2.0	6.6	x	x	x
CC(=O)NNc1ccc(C(F)(F)F)cc1[N+](=O)[O-]	1.6	x	0.0	-2.1	i	6.9	0.661
COc1ccccc1NC(=O)NCC1(N(C)C)CCCCC1	10.7	-7.7	-0.3	2.8	i	1.0	0.631
O=C(N/N=C/c1ccco1)c1cc(-c2cccc3ccccc23)n[nH]1	9.0	39.9	0.0	3.0	x	x	x
N#Cc1ccccc1NC(=O)Nc1cccs1	-8.9	1.6	3.2	-8.7	x	-7.6	0.727
SMILES	Beta2AR agonist	ALR H2O2 inh	LANA-H2A inh	HNF4A DNA FP	FGF22 binding	UCH37 DUB inh	Ecoli growth
CCc1ccc2[nH]c(=O)c(CN(CCCN3CCOCC3)C(=O)Nc3ccccc3)cc2c1	-0.3	-5.8	-4.9	-1.5	x	-2.1	0.744
CCOc1cc(C(c2c(C)[nH][nH]c2=O)c2c(C)[nH][nH]c2=O)ccc1OC(=O)c1cccc([N+](=O)[O-])c1	-3.7	5.1	5.5	0.0	x	5.2	0.682
COc1cc(/C=N/NC(N)=O)cc(Br)c1OCc1ccc(C)cc1	-1.5	-3.3	5.9	-3.2	x	x	x
CC1(C)Cc2[nH]c(=S)c(C#N)cc2CO1	-1.4	12.3	1.4	2.3	x	1.0	0.744
O=C(c1cnccn1)N1CCc2c([nH]c3ccccc23)C1c1cccc(Cl)c1 (stereo unspecified)	-1.3	-6.1	-4.5	4.1	i	6.7	0.694
CON(C)C(=O)CCC1CCCN1C(=O)OC(C)(C)C (stereo unspecified)	-6.7	-4.0	x	2.3	x	1.9	0.718
O=C(N/C(=C/c1cccc([N+](=O)[O-])c1)C(=O)N1CCCC1)c1ccccc1	-10.7	x	-0.3	-4.6	i	5.0	0.686
O=C(c1ccccc1)c1ccc(C(=O)N2CCN(c3ccc(F)cc3)CC2)o1	-8.9	0.5	-1.8	0.5	x	-0.8	0.668
CCN(CC(=O)Nc1ccc(NC(C)=O)cc1)C(=O)/C=C/c1ccc(S(=O)(=O)N2CCCCCC2)cc1	0.4	-0.3	0.8	0.3	i	-2.5	0.729
O=C(O)c1ccccc1-c1ccccc1C(=O)Nc1ccc2c(c1)[nH]c(=O)c1ccccc12	-8.9	-16.8	-2.5	-1.7	i	3.5	0.654
Cc1cc([N+](=O)[O-])cc(C)c1OCC(=O)N/N=C/c1ccc(OC(=O)c2ccccc2)cc1	1.1	-4.5	-2.8	1.5	x	x	x
CC1CCCC(NC(=O)COC(=O)COc2ccc(Cl)cc2)C1C (stereo unspecified)	8.6	-1.2	-3.2	2.3	x	2.7	0.751
O=C(Nc1nc(-c2ccc([N+](=O)[O-])cc2)cs1)c1c(F)cccc1F	0.0	x	-4.6	-3.1	i	4.2	0.694
CCN(C[C@H]1N[C@@](Cc2ccccc2)(C(=O)OC)[C@H]2C(=O)N(Cc3ccccc3)C(=O)[C@@H]12)S(=O)(=O)c1ccc(F)cc1	-1.4	-2.9	i	1.1	i	-1.3	0.726
COC(=O)c1cc(NC(=O)C23CCC(C)(C(=O)O2)C3(C)C)cc(C(=O)OC)c1 (stereo unspecified)	14.6	-12.9	-9.1	-3.7	x	-1.4	0.704
Cc1cccc2cc(/C=N/NC(=O)c3ccncc3)c(Cl)nc12	2.1	-23.1	-0.9	-2.3	i	x	x
COC(=O)CC(=O)N1CCN(c2ccc(Cl)c(Cl)c2)CC1	10.4	13.2	3.5	2.5	i	5.2	0.655
O=[N+]([O-])c1ccc(Nc2ccc(F)cc2)nc1	0.8	-2.7	0.6	0.5	x	5.2	0.618
Clc1ccc(-c2nnc3n2-c2ccccc2SC3)cc1	-1.9	-19.3	-5.4	-1.1	i	4.8	0.652
O=S(=O)(c1ccc(F)cc1)N1CCN(S(=O)(=O)c2ccc3c(c2)OCCO3)CC1	5.3	0.8	-5.8	-2.5	i	3.4	0.657
Cc1cc(C)c2cc(CN(Cc3ccco3)C(=O)NCc3ccccc3)c(=O)[nH]c2c1	-3.0	-5.7	-1.3	-4.3	x	-0.7	0.658
N#CCCCN1C(=O)C(=C(C#N)C#N)c2ccccc21	18.8	x	-0.6	-4.5	i	5.1	0.649
